Bioassay records from PubChem.
Ecoli growth: inhibitors of Escherichia coli growth; 0.21% of 330,000 active; OD600, 23 h; stronger effect = lower value; OD600 absorbance (concentration not given with the values);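 active means OD600 absorbance below the run mean of sample wells minus 3.6 SD, in any replicate, cut at about 0.56 in these data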;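 further: stock transfer was 300 nL into about 60 µL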
rRNA inh HTS: inhibits bacterial ribosomal RNA function over humanized ribosomes; GFP signal change (wild-type ribosome), % (test concentration not listed); AID 720706; E. coli WT GFP vs humanized-ribosome RFP mutants, fluorescence, 24 h; stronger effect = lower value; DMSO median 0, no signal -100; 1.6% of 350,000 active;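 active means significant combined selectivity score with lowered wild-type GFP, culture density cut under 30%, mutant RFP and density less affected; inactive means any of these conditions unmet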; further: one replicate is shown; some compounds called inactive have numbers as strong as hits
A1 inh: inhibitors of the anti-apoptotic protein A1, read as caspase activation | MEF A1-2A-BIM cells, Caspase-Glo 3/7 luminescence, 3 h; percent of clofoctol response, vehicle zero | caspase activation, % (concentration not given with the values) | 0.066% of 330,000 active;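 active means over half of replicate activation scores above 10%, or exactly half above 10 with the replicate mean above 10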;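 further: wells of about 30 µL received 50 nL stock; many hits fall short of the cut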
T cruzi inh: T. cruzi replication inhibition | T. cruzi beta-gal in NIH3T3, luminescence, 90 h | inhibition, % (no concentration beside the values) | 1.4% of 300,000 active;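 active means mean inhibition across valid replicates above about 55%, limit read from the data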;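 further: signal also drops with host cell toxicity which is not excluded here; 0% = plate median of DMSO wells and 100% = zero luminescence signal; higher percent means less beta-gal luminescence so fewer parasites; stock transfer was 50 nL into about 50 µL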
FGF22 binding: binders of recombinant human FGF22 by thermal shift; SYPRO orange fluorescence; percent of sucrose octasulfate shift, DMSO zero; calls only at 9.99 µM; 1.5% of 340,000 active;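 active means melting point raised past a set limit in the mean and every replicate; three in four hits are not shown here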
Target sequence (Q9HCT0 whole entry, looked up): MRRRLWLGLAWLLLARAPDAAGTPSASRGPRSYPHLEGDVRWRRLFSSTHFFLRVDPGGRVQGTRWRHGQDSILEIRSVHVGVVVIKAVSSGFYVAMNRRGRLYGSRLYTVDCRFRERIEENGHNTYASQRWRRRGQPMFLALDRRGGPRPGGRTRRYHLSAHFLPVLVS
AF4-AF9 inh: inhibitors of human MLL-AF4/AF9 interaction; P42568; AID 651704; 0.47% of 350,000 active; inhibition, % at 10 µM; AlphaScreen, biotin-AF4 peptide binding to FLAG-AF9;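 active means every replicate reaching a set inhibition limit, whatever the replicate mean, cut at about 25% in these data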;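 further: 0% = plate neutral control median and 100% = total signal loss; the record names both 10 and 1 µM as test concentration; the first replicate is given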
Target sequence (P42568 whole entry, looked up): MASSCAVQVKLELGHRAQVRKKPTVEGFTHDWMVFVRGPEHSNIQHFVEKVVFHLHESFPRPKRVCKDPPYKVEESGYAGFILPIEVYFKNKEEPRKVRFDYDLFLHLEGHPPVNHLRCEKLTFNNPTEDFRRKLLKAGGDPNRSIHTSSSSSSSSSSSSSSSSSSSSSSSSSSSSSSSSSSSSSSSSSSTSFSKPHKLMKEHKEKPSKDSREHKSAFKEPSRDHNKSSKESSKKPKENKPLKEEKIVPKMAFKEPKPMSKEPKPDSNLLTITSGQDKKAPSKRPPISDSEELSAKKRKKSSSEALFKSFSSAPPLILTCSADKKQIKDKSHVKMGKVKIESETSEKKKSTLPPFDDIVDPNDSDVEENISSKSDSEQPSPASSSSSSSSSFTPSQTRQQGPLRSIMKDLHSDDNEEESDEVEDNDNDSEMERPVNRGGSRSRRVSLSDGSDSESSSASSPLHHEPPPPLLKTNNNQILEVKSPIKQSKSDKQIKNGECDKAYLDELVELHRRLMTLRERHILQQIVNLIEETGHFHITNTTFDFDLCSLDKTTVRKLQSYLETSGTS
UCH37 inh: inhibitors of human deubiquitinating enzyme UCH37; Q9Y5K5; purified proteasome/UCH37, Ub-AMC cleavage fluorescence; inhibition, % (test concentration not listed); 0.33% of 330,000 active;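 active means mean of two replicates above 20%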;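 further: 0% = compound-free wells with enzyme and 100% = wells lacking proteasome; stock transfer was 100 nL into about 20 µL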
Target sequence (Q9Y5K5 whole entry, looked up): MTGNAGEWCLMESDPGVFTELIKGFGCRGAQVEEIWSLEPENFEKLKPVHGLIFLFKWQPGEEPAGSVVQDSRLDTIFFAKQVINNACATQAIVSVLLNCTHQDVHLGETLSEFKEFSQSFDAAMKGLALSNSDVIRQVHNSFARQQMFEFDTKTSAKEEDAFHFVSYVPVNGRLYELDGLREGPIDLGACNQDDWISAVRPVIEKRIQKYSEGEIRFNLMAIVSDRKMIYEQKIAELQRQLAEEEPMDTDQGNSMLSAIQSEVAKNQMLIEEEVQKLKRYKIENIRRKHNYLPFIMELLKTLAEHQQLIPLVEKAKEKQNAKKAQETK
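Material: human UCH37 enzyme supplied as purified proteasome complex / Amount: 0.15 nM proteasome as dispensed / Buffer or medium: pH 7.4 Tris-HCl (50 mM) with ovalbumin, ATP-MgCl2, DTT / Times: preincubation 30 min, reaction 25 min, room temperature / Technique: AMC fluorescence from Ub-AMC cleavage, excitation 355 nm, emission 460 nm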
Beta apoptosis: beta cell apoptosis inhibition. INS-1E cytokine-induced death, ATP luminescence, 48 h; percent of positive-control rescue, neutral wells zero. protection from apoptosis, % (no concentration beside the values). 0.8% of 300,000 active;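 active means all replicates at 75% or more, or half of them and the mean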;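 further: 0% = cytokine-treated negative control wells and 100% = positive control rescue; higher means more ATP so stronger rescue from cytokine killing; wells of about 40 µL received 100 nL stock; the first replicate is given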
rRNA inh HTS OD600: further read-out of rRNA inh HTS, marked with its call; OD600 change, %; measured here: OD600 growth;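 optical density of the mix in the first replicate; 0 = DMSO median and -100 = no signal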
rRNA inh HTS RFP: also measured in rRNA inh HTS; calls as there; RFP signal change, %; measured here: RFP humanized mutant strains;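 first replicate; 0 = DMSO median and -100 = no signal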
The depositor's hits bear a star; i = inactive; . = no result given. These rows are one share of the data; the hit share may differ from the screen's.

Compound,Ecoli growth,rRNA inh HTS,rRNA inh HTS OD600,rRNA inh HTS RFP,A1 inh,T cruzi inh,FGF22 binding,AF4-AF9 inh,UCH37 inh,Beta apoptosis
O=C(COC(=O)CCC1CCCC1)Nc1ccc(F)cc1,0.66,0,6,2.0,-1.9,.,i,0.6,2.5,3
CC(CCc1ccccc1)NC(=O)COC(=O)c1cccnc1Cl (centres undefined),0.68,.,.,.,0.5,.,i,-5.4,1.0,3
CCCN(CC(=O)Nc1ccccc1C)C(=O)COc1c(Cl)cccc1Cl,.,6,7,-1.3,1.3,10,i,0.5,.,-3
CCc1nnc(NC(=O)CC(=O)Nc2ccccc2C(=O)O)s1,0.69,15,13,2.0,-9.1,-8,i,2.0,2.1,6
O=C(Cc1ccccc1[N+](=O)[O-])NNC(=O)c1ccncc1,0.67,27,15,1.5,-0.4,.,i,1.5,3.6,-4
Cc1cc(C(=O)NC(C)c2ccncc2)cs1 (centres undefined),0.67,.,.,.,0.3,-15,.,.,-0.5,-3
O=C(NCCC1CCCCN1S(=O)(=O)c1ccc(F)cc1)C(=O)NCc1ccccn1 (centres undefined),0.7,2,-1,-1.7,0.8,5,i,-0.5,-1.5,.
CC(=O)c1c[nH]c(C(=O)NC2CCCCCC2)c1,0.73,0,9,-2.5,-0.1,-25,i,-3.4,5.8,-1
Cc1ccc(CC(NC(=O)C2CCCCC2)C(=O)O)cc1 (centres undefined),0.69,-1,7,9.8,.,.,i,-1.8,-1.1,.
CSCCC(NC(=O)c1ccccc1)C(=O)OCC(=O)N(C)CCC#N (centres undefined),0.67,17,6,2.5,-0.5,-6,i,-1.0,5.5,-1
C=C(C)c1cccc(C(C)(C)NC(=O)N2CCC(C(N)=O)CC2)c1,0.72,2,-2,-0.4,-0.1,-5,i,-2.8,4.5,-4
CN(Cc1nccn1C)C(=O)c1cc(COc2cccc(C(F)(F)F)c2)on1,0.68,-1,-2,1.4,0.3,-7,i,4.5,6.2,-9
Cc1nonc1OCCCNc1ccc([N+](=O)[O-])cc1Cl,0.63,7,8,-2.4,0.3,4,i,0.1,1.7,-3
S=C1NC(c2cccs2)=CC(c2ccc(Br)cc2)N1 (centres undefined),0.63,.,.,.,0.9,6,.,.,1.8,3
Cc1cc(=O)n2[nH]c(C)cc2n1,0.67,12,8,-1.8,1.8,-10,i,-0.2,-1.6,.
O=[n+]1c2c(n([O-])c3c1CCC3)CCCC2,0.73,.,.,.,-0.2,-8,.,.,2.0,0
O=C(/C=C/c1ccco1)N(Cc1ccccc1)C1CCS(=O)(=O)C1 (centres undefined),0.68,16,10,8.8,1.2,8,i,-6.3,4.6,.
CCCc1c(C)nc2ccccc2c1SCCC#N,0.71,-8,-13,-3.0,0.5,2,i,-12,5.2,-16
COc1ccc(C2CC(c3cccc(F)c3)=NN2c2ccc(S(N)(=O)=O)cc2)cc1 (centres undefined),0.69,-9,-4,0.3,.,.,i,-21,i,.
Nc1nc(SCc2nc3scc(-c4ccccc4)c3c(=O)[nH]2)n[nH]1,0.72,-25,-32,4.4,0.4,6,i,0.1,1.6,1
COc1cc(NC(=O)COc2cc(C)cc3oc(=O)c(C)c(C)c23)cc(OC)c1OC,0.66,6,6,-2.7,-0.4,8,i,0.6,-10,1
Cc1ccc(NC(=O)c2ccc(NCCCN3CCC(C)CC3)c([N+](=O)[O-])c2)c(C)c1,0.65,-2,8,3.2,1.3,26,i,-0.8,4.9,1
CCOC(=O)c1c(-c2ccccc2)oc2ccc(O)c(CN3CCOCC3)c12,0.72,.,.,.,1.0,-5,.,.,-1.3,4
O=C(COC(=O)c1cc(S(=O)(=O)N2CCOCC2)ccc1F)Nc1ccc(Cl)cn1,0.68,5,-1,4.7,-0.2,.,i,1.1,1.0,-9
O=C(CSc1nnc(CNc2ccc(F)cc2)o1)N1CCCc2ccccc21,0.72,.,.,.,-2.3,-1,.,.,0.7,0
Cc1ccc(CNc2nc(N)c([N+](=O)[O-])c(Nc3cccc(F)c3)n2)cc1,0.76,.,.,.,-1.8,1,.,.,8.2,-12
CN(C)S(=O)(=O)NCc1ccc2c(c1)OCO2,0.71,.,.,.,0.2,-10,.,.,2.7,1
NC(=S)N/N=C/c1ccc(Br)o1,.,18,23,-1.6,-0.6,19,i,-3.8,.,-1
O=[N+]([O-])c1ccc(Sc2n[nH]c(-c3ccc(Cl)cc3Cl)n2)nc1,0.71,.,.,.,-1.1,-30,.,.,3.8,-5
Cc1csc(SCC(=O)NC(=O)NCc2ccccc2)n1,0.7,.,.,.,-0.2,-1,.,.,1.3,-1

Reformatted with two lines to a compound: entries from further up.
Second line of a record: Ecoli growth, rRNA inh HTS, rRNA inh HTS OD600, rRNA inh HTS RFP, A1 inh, T cruzi inh, FGF22 binding, AF4-AF9 inh, UCH37 inh, Beta apoptosis
- CC(CCc1ccccc1)NC(=O)COC(=O)c1cccnc1Cl (centres undefined)
    0.68, ., ., ., 0.5, ., i, -5.4, 1.0, 3
- CCCN(CC(=O)Nc1ccccc1C)C(=O)COc1c(Cl)cccc1Cl
    ., 6, 7, -1.3, 1.3, 10, i, 0.5, ., -3
- CCc1nnc(NC(=O)CC(=O)Nc2ccccc2C(=O)O)s1
    0.69, 15, 13, 2.0, -9.1, -8, i, 2.0, 2.1, 6
- O=C(Cc1ccccc1[N+](=O)[O-])NNC(=O)c1ccncc1
    0.67, 27, 15, 1.5, -0.4, ., i, 1.5, 3.6, -4
- Cc1cc(C(=O)NC(C)c2ccncc2)cs1 (centres undefined)
    0.67, ., ., ., 0.3, -15, ., ., -0.5, -3
- O=C(NCCC1CCCCN1S(=O)(=O)c1ccc(F)cc1)C(=O)NCc1ccccn1 (centres undefined)
    0.7, 2, -1, -1.7, 0.8, 5, i, -0.5, -1.5, .
- CC(=O)c1c[nH]c(C(=O)NC2CCCCCC2)c1
    0.73, 0, 9, -2.5, -0.1, -25, i, -3.4, 5.8, -1
- Cc1ccc(CC(NC(=O)C2CCCCC2)C(=O)O)cc1 (centres undefined)
    0.69, -1, 7, 9.8, ., ., i, -1.8, -1.1, .
- CSCCC(NC(=O)c1ccccc1)C(=O)OCC(=O)N(C)CCC#N (centres undefined)
    0.67, 17, 6, 2.5, -0.5, -6, i, -1.0, 5.5, -1
- C=C(C)c1cccc(C(C)(C)NC(=O)N2CCC(C(N)=O)CC2)c1
    0.72, 2, -2, -0.4, -0.1, -5, i, -2.8, 4.5, -4
- CN(Cc1nccn1C)C(=O)c1cc(COc2cccc(C(F)(F)F)c2)on1
    0.68, -1, -2, 1.4, 0.3, -7, i, 4.5, 6.2, -9
- Cc1nonc1OCCCNc1ccc([N+](=O)[O-])cc1Cl
    0.63, 7, 8, -2.4, 0.3, 4, i, 0.1, 1.7, -3
- S=C1NC(c2cccs2)=CC(c2ccc(Br)cc2)N1 (centres undefined)
    0.63, ., ., ., 0.9, 6, ., ., 1.8, 3
- Cc1cc(=O)n2[nH]c(C)cc2n1
    0.67, 12, 8, -1.8, 1.8, -10, i, -0.2, -1.6, .

Exported with values under each structure: two of the compounds above.
Below each compound: Ecoli growth, rRNA inh HTS, rRNA inh HTS OD600, rRNA inh HTS RFP, A1 inh, T cruzi inh, FGF22 binding, AF4-AF9 inh, UCH37 inh, Beta apoptosis
> NC(=S)N/N=C/c1ccc(Br)o1
→ ., 18, 23, -1.6, -0.6, 19, i, -3.8, ., -1
> O=[N+]([O-])c1ccc(Sc2n[nH]c(-c3ccc(Cl)cc3Cl)n2)nc1
→ 0.71, ., ., ., -1.1, -30, ., ., 3.8, -5

Following part:
Compound,Ecoli growth,rRNA inh HTS,rRNA inh HTS OD600,rRNA inh HTS RFP,A1 inh,T cruzi inh,FGF22 binding,AF4-AF9 inh,UCH37 inh,Beta apoptosis
CN(C)c1ccc(C(=O)C(=O)c2ccccc2)cc1,0.64,-4,6,0.4,-0.6,-9,i,7.5,9.9,-11
O=C1c2ccccc2C(=O)N1CCC1=CCCCC1,0.71,.,.,.,-2.9,8,.,.,2.0,3
CC1CC(C)CN(C(=O)CSCC(=O)Nc2nc(-c3cccs3)cs2)C1 (centres undefined),0.75,2,-14,-5.7,-0.1,-22,i,8.1,4.2,-12
O=C(O)c1ccccc1C(=O)c1ccc2c(c1)N(Cc1ccc(Cl)c(Cl)c1)C(=O)CO2,0.68,-38,-59,24,-0.1,24,.,-1.1,3.9,.
CC(=O)c1ccc(OC(C)C)c(CC(C(N)=O)C(N)=O)c1,0.69,.,.,.,0.1,-6,.,.,-2.4,-1
CCN1CCN(CC(=O)Nc2ccc(C(C)=O)cc2)CC1,0.7,16,13,4.0,0.3,10,i,-1.2,0.9,-2
O=C(COC(=O)C1CC(=O)N(Cc2ccccc2)C1)c1ccc(Br)cc1 (centres undefined),0.7,.,.,.,0.4,-2,.,.,-0.2,-8
CC1CCCCN1S(=O)(=O)c1ccc(N(C(=O)c2cnccn2)C(C(=O)NC2CCCC2)c2cccs2)cc1 (centres undefined),0.64,.,.,.,-0.2,9,.,.,5.4,-3
CCn1c(SCC(=O)N/N=C/C=C\c2ccco2)nc2ccccc21,.,0,-2,0.5,0.6,-26,i,-0.7,.,-6
CN(C)C(=O)N1CCC(C(=O)NCc2ccccc2Cl)CC1,0.69,.,.,.,-0.6,6,.,.,3.1,-8
O=C(COC(=O)/C=C/c1ccc(F)cc1)NCc1cccs1,0.7,3,14,-3.0,-0.3,.,i,0.4,2.2,4
O=C(C1CCC(CNS(=O)(=O)c2cccs2)CC1)N1CCN(c2ccc(Cl)cc2)CC1 (centres undefined),0.71,-3,-7,2.0,0.8,-1,i,-2.3,-0.9,55
CC(=O)c1cc2c(cc1NC(=O)CCNC(=O)c1ccccc1Cl)OCO2,0.72,.,.,.,-0.4,0,.,.,-7.5,7
COC(=O)C1(S(=O)(=O)c2ccc(C)cc2)CCOCC1,0.67,.,.,.,0.5,-2,.,.,1.5,0
O=C(COc1ccc(Cl)cc1)c1ccc(O)cc1O,0.65,-46,-49,-13,-5.9,-6,i,-4.9,5.1,6
COc1ccc(C2CC(c3cccc(OC)c3OC)n3nnnc3N2)cc1 (centres undefined),0.68,.,.,.,-0.1,3,.,.,-0.5,-2
O=C(CN1C2=NCCN2c2ccccc21)c1ccc(Br)cc1,0.74,.,.,.,0.7,11,.,.,1.6,7
O=C(CSc1nnc(NC(=O)c2c(F)cccc2F)s1)Nc1ccccc1F,0.71,0,4,4.1,-0.7,-5,i,-4.8,4.2,-1
Cc1ccc(N/C=C/C(=O)c2sc(-c3ccccc3)nc2C)cc1,0.81,.,.,.,-2.3,-17,.,.,0.8,0
O=C(N/N=C/c1ccccc1[N+](=O)[O-])c1ccc2nc[nH]c2c1,.,4,2,-0.9,0.3,-1,i,.,.,-10
CCOc1ccc(OCCC(=O)OCC(=O)NC(C)c2ccccc2)cc1 (centres undefined),0.7,1,11,-0.6,0.3,4,i,-6.5,-0.1,-5
CN(CC(=O)NNC(=O)CNC(=O)c1ccccc1F)S(=O)(=O)c1ccc(Cl)cc1,0.67,4,5,-0.7,-0.5,.,i,6.6,0.0,-1
COc1cc(OC)cc(-c2c(-c3cccs3)c3cc(-c4ccc(OCc5ccccc5)cc4)ccc3n2C)c1,0.76,5,2,-7.0,-0.5,.,i,0.0,-25,-1
OCCN(CCO)c1cc2c3ccccc3ccc2c2ccccc12,0.65,0,-8,-2.2,.,.,i,3.2,-221,.
